# Ba CapD inh: Bacillus anthracis CapD inhibitors, primary screen, biochemical, fluorescence intensity. purified CapD enzyme, fluorescence intensity read-out; hits give low values; some hits fall short of the stated cut. hit rate 0.23% among 140,000. z-score (concentration not given with the values). CapD gamma-glutamyltranspeptidase (Bacillus anthracis Ames Ancestor);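 active means z-score under -4 in either of two replicates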;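 further: stock transfer was 100 nL into about 40 µL; score is relative to mean and spread of the plate; one replicate is shown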
# AID504770: growth inhibition of E. coli YBA685, primary screen, V. cholerae RctB inhibitors | hit rate 0.27% among 130,000 | z-score (test concentration not listed) | E. coli YBA685 rctB-dependent plasmid, OD600 growth, 3 h; hits give low values;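 active means z-score under -2 on both plates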;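 further: wells of about 30 µL received 100 nL stock; score is relative to mean and SD of the test wells; the first replicate is given; strong numbers were not always called active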
# * hit, by the source's call; i = inactive; · = no result given.
# Values run as follows: Ba CapD inh, AID504770
Cc1cc(NC(=O)c2cc3c(s2)CCCC3)no1
 : -0.725, -0.4
COc1ccc(C)cc1NC(=O)c1cc(C2CC2)[nH]n1
 : 0.695, -1.4
CCOC(=O)N1CCN(C(=O)c2ccc3c(=O)n(C4CCCCC4)c(SCc4ccncc4)nc3c2)CC1
 : -0.115, ·
Nc1nnc(C(F)(F)F)s1
 : 0.17, ·
CCCCCCC1(O)C(C)C(c2ccc(N(C)C)cc2)NC(c2ccc(N(C)C)cc2)C1C (centres undefined)
 : 0.72, ·
Clc1ccc(Nc2nc(Nc3cccc(Cl)c3)nc(N3CCOCC3)n2)cc1
 : ·, -0.25
Cc1cc(=O)oc(C)c1C(=O)OCC(=O)c1ccc(Cl)c(Cl)c1
 : 4.44, 0.05
CC(C)c1ccccc1NS(=O)(=O)N(C)C
 : 0.02, 1.4
COc1cc(C(=O)Nc2ccc3nc(N4CCN(c5ncccn5)CC4)cc(C)c3c2)cc(OC)c1OC
 : 4.39, 1.4
O=C(CNCc1ccccc1)N1c2ccccc2Sc2ccc(Cl)cc21
 : 0.41, ·
Cc1nn(-c2ccccc2)c(N2CCCC2)c1/C=N/OCC(=O)Nc1ccc(F)cc1F
 : ·, -0.5
Cc1cc(C)c(C#N)c(SCCCCSc2nc(C)cc(C)c2C#N)n1
 : -0.22, 0.15
NC(=O)c1nc(C2CCCCC2)nc2c1[nH]c(=O)n2-c1ccccc1
 : 3.42, 0.3
Cc1nc2ccc(NC(=O)c3ccc([N+](=O)[O-])cc3)cc2s1
 : -0.095, ·
FC(F)(F)c1cnc(N2CCN(c3ccc(Cl)nn3)CC2)c(Cl)c1
 : -0.145, ·
CCC(=O)n1c(SC)nc2ccccc21
 : 0.515, -0.85
CC(=O)OC1CCN(Cc2ccccc2)C(C)C1C (centres undefined)
 : 0.07, 0.2
CC1(C)S[C@@H]2[C@H](NC(=O)[C@H](N)c3ccccc3)C(=O)N2[C@H]1C(=O)OC1OC(=O)c2ccccc21 (some centres undefined)
 : -1.06, ·
O=C(COC(=O)COc1ccccc1)Nc1cccc2ccccc12
 : 0.04, -0.25
Cc1cc(C)nc(N/C(=N/S(=O)(=O)c2ccccc2)Nc2ccccc2)n1
 : 0.565, 0.2
CN1CCOC(=O)/C1=N\Nc1cc(Cl)ccc1Cl
 : ·, 1.4
CCOc1cc(C2C(C(=O)OCCOc3ccccc3)=C(C)NC3=C2C(=O)CC(C)(C)C3)ccc1O (centres undefined)
 : 1.14, ·
NCCC1COc2ccccc2O1 (centres undefined)
 : 0.01, 0.95
CN(Cc1ccc(Cl)c(Cl)c1)Cn1nnc2ccccc2c1=O
 : ·, -1.15
Cc1ccc(N2C(=O)C(N3C(=O)c4c(Cl)c(Cl)c(Cl)c(Cl)c4C3=O)C2c2cccs2)cc1F (centres undefined)
 : -0.185, ·
O=C(O)c1cn(-c2ccccc2)nc1/C(=N\O)c1ccccc1
 : ·, -1.3
NNC(=O)c1ccccc1S(N)(=O)=O
 : ·, -0.1
CSc1ccc(CNCc2ccncc2)cc1
 : ·, -0.05
Cc1ccc(-n2cnc3cc(N=Cc4nc5ccccc5n4C)ccc32)cc1
 : 1.06, -0.65
O=C(/C=C/OC(=O)c1ccc(Cl)cc1)c1ccc(Cl)cc1
 : 0.28, 0.2

# Quoted from the entries so far, six compounds:
# Values run as follows: Ba CapD inh, AID504770
CCC(=O)n1c(SC)nc2ccccc21
 : 0.515, -0.85
CC(=O)OC1CCN(Cc2ccccc2)C(C)C1C (centres undefined)
 : 0.07, 0.2
CC1(C)S[C@@H]2[C@H](NC(=O)[C@H](N)c3ccccc3)C(=O)N2[C@H]1C(=O)OC1OC(=O)c2ccccc21 (some centres undefined)
 : -1.06, ·
O=C(COC(=O)COc1ccccc1)Nc1cccc2ccccc12
 : 0.04, -0.25
Cc1cc(C)nc(N/C(=N/S(=O)(=O)c2ccccc2)Nc2ccccc2)n1
 : 0.565, 0.2
CN1CCOC(=O)/C1=N\Nc1cc(Cl)ccc1Cl
 : ·, 1.4

# Continuation.
# Values run as follows: Ba CapD inh, AID504770
N#C/C(=C1\Nc2ccccc2S1)c1sc2ccccc2c1Cl
 : i, -0.9
S=c1[nH]cnc2scc(-c3ccccc3)c12
 : -0.26, -0.75
S=C(N/N=C/c1cccs1)N/N=C/c1cccs1
 : -3.64, -0.85
O=C(CSc1nc2cc(Cl)ccc2s1)NCc1ccc(F)cc1
 : 0.59, 0.85
O=C(COCc1cc(-c2ccco2)on1)Nc1cccnc1
 : 0.745, 0.1
O=C(O)C1C2C=CC(O2)C1C(=O)N1CCOCC1 (centres undefined)
 : ·, 0.25
COc1ccc(/C=C2\C(=O)Nc3ccccc32)c(OC)c1
 : ·, -0.05
c1ccc2c(c1)CCCN2c1nc(N2CCOCC2)nc(N2CCOCC2)n1
 : 0.205, 0.85
CCOC(=O)Cc1nn(CC)c(=O)c2ccccc12
 : ·, -0.55
COc1ccc(C2=Nn3c([n+](C)c4ccccc43)SC2)cc1
 : ·, -0.25
CCOC(=O)N1C(=O)c2ccccc2NC1(C(F)(F)F)C(F)(F)F
 : 0.225, 0.35
O=C(CCCn1c(SCC(=O)Nc2ccccc2C(F)(F)F)nc2ccccc2c1=O)NCC1CCCO1 (centres undefined)
 : 0.725, ·
Cc1ccc(-c2cc(-c3cccs3)[nH]n2)c(O)c1
 : 0.285, -0.25
O=C(CSc1ncnc2ccccc12)c1ccccc1
 : ·, -0.5
CCCN(CCC)S(=O)(=O)c1cccc(-c2cn3ccc(C)cc3n2)c1
 : 0.29, -0.95
O=C(O)/C=C/c1ccc(S(=O)(=O)N(CCO)CCO)cc1
 : ·, 0.65
Cc1ccccc1-n1c(=S)sc2c1nc(SCc1cccc(F)c1)n1c3ccccc3nc21
 : -0.195, ·
O=c1o[nH]c(-c2ccccc2)c1N=Nc1cc(C(F)(F)F)cc(C(F)(F)F)c1
 : -0.25, ·
Cc1ccc([N+](=O)[O-])cc1S(=O)(=O)Nc1ccc(-c2cn3ccccc3n2)cc1
 : 0.375, ·
COc1ccc(NS(=O)(=O)c2cc(OC)ccc2NC(=O)c2cc(C)oc2C)cc1
 : ·, -0.75
C/C(=N\NC(=O)COc1cccc(C)c1)c1ccco1
 : 0.58, 0.2
Cc1ccc(CNC(=O)CN2C(=O)COc3cc(S(=O)(=O)N4CCC(C)CC4)ccc32)cc1
 : -0.41, 0
Cc1c(Cl)c(=O)oc2cc(OC(=O)C(C)NC(=O)OCc3ccccc3)c(Cl)cc12 (centres undefined)
 : 15.3, -0.1
COc1ccc(-n2c3c(cc(C(=O)NCCc4ccccc4)c2=O)C(=O)CC(C)(C)C3)cc1
 : 0.015, ·
Clc1ccc(C2=NC(c3ccc(Cl)c(Cl)c3)NN2)cc1 (centres undefined)
 : -1.82, ·
O=C(OCCCOc1ccc(F)cc1)c1ccc(-n2cnnn2)cc1
 : ·, -0.15
O=C(c1ccc2n[nH]nc2c1)N1CCN(C(c2ccccc2)c2ccccc2)CC1
 : -0.665, ·
COc1ccc(C2C(C(=O)N3CC(C)CC(C)C3)CCC(=O)N2c2ccc(OC)cc2)cc1 (centres undefined)
 : -0.195, ·
COc1ccc(C2/C(=C(\O)c3ccccc3)C(=O)C(=O)N2c2ccc(C)c(Cl)c2)cc1OC (centres undefined)
 : -0.81, ·
Cc1c(Br)c([N+](=O)[O-])nn1CC(=O)Nn1c(-c2ccc(F)cc2)nc2ccccc2c1=O
 : -0.885, ·
Cc1ccc(C)c(N2N=C(C(=O)OCn3nnc4ccccc4c3=O)CCC2=O)c1
 : ·, -0.85
Cc1ccc(NC(=O)c2sc3ncn(CC(=O)N4CCN(c5ccccn5)CC4)c(=O)c3c2C)c(Br)c1
 : 5.69, ·
CCOC(=O)C1=C(C(=O)OCC)SC(=C2C(=S)C(C)(C)N(C(=O)C(C)C)c3ccc(OC)cc32)S1
 : -0.3, ·
Cc1cnc(C(=O)OCc2csc(-c3ccccc3)n2)cn1
 : ·, -0.5
COc1ccc2nc3sc(C(=O)N(C)c4ccc(Cl)cc4)cc3cc2c1
 : -3.16, -0.8
O=S1(=O)CC(N2CCCCC2)c2ccccc21 (centres undefined)
 : -0.225, -1.15
CNC(=O)c1c(NC(=O)CC2SC(=O)NC2=O)sc2c1CCCC2 (centres undefined)
 : ·, -0.2
Cc1cc2ccccc2c(=O)n1CC(=O)NCCCN1CCC(C)CC1
 : -1.04, ·
CCN1/C(=C2/SC(=S)N(N)C2=O)Sc2ccccc21
 : ·, -0.05
Cc1ccc(S(=O)(=O)CC(=O)N2CCCC2)cc1
 : ·, 1.25
CCOc1ccc2c(c1)nc1n2C(=O)CC(c2ccccc2)S1 (centres undefined)
 : 0.09, -0.1
O=C(COC(=O)c1cc(-c2ccccc2)nc2ccccc12)NCc1ccco1
 : ·, 0.5
O=c1c(NCCC2=CCCCC2)nccn1-c1ccccc1
 : 1.24, 1.55
N#CCCN(Cc1ccccc1)C(=O)Nc1ccccc1
 : -0.315, 0.05
CN(C)c1cccc2c(Br)ccc(N(C)C)c12
 : 0.175, 0.05
CCCC(=O)Nc1ccc2oc(=O)ccc2c1
 : 25.1, -0.65
CCCn1nnc(NC(=O)COc2ccccc2)n1
 : -0.205, -1.1
Cc1[nH]c2ccccc2c1C(=O)CSc1nncn1C
 : -0.28, -0.55
CCOc1cc(C#N)c(NC(=O)Cc2cccs2)cc1OCC
 : -0.775, -0.8
Cc1nn(-c2ccccc2)nc1C(=O)NNC(=O)c1ccccc1
 : 0.295, ·
CCOC(=O)CSc1nc(C)cs1
 : -0.04, -1.3
CCOC(=O)NC(c1ccccc1F)C1CCc2ccccc2C1=O (centres undefined)
 : -0.31, 0.3
Cc1c2ccc(Cl)cc2s[n+]1C
 : 0.655, 0.25
O=C(O)c1ccc(/C=N/O)cc1
 : ·, -0.85
Cc1ccc(S(=O)(=O)Nc2ccc(-c3nnc4n3CCCCC4)cc2)cc1C
 : ·, 0.75
COc1ccc(C2Nc3ccccc3C(=O)N2c2cccc3ccccc23)cc1COc1c(C)cccc1C (centres undefined)
 : 1.33, ·
COC(=O)C1=C(C)N=c2s/c(=C3\C(=O)N(C(C)=O)c4ccccc43)c(=O)n2C1c1ccc(OC)cc1 (centres undefined)
 : -0.435, ·
CN(C)Cc1ccccc1CNC(=O)CC1C=CCC1 (centres undefined)
 : ·, -1.35
Nc1cc(=O)[nH]c(SCc2nc(-c3cccs3)no2)n1
 : 0.605, -0.6
Cc1cc(C(=O)NC(C)C2CCCO2)c(C)o1 (centres undefined)
 : 1.59, -0.3

# Continuation.
canonical_smiles	Ba CapD inh	AID504770
COc1ccc(C(CC(=O)N2CCOCC2)c2ccc(F)cc2)cc1 (centres undefined)	0.295	-0.7
CCOC(=O)c1cc(C)n(CC2CCC(C(=O)NCc3ccco3)CC2)c1C (centres undefined)	-0.08	-1.7
Clc1cccc(Oc2cnc3ccccc3n2)c1	-0.28	0.9
COc1cc(OC)cc(N2CCN(S(=O)(=O)c3cc(Br)c(Cl)s3)CC2)c1	0.13	·
NNC(=O)COc1c(Br)cc(Br)c2cccnc12	·	0.85
CCCN(CC(=O)Nc1ccccc1C)C(=O)c1cn2ccccc2n1	·	-2.1
COc1ccc(/C=C2\N=C(SC)NC2=O)cc1	0.36	-0.2
COC(=O)CCNc1ccc2ccccc2c1	75.1	-1
Cc1c(C(=O)N2CCN(C)CC2)sc2ncnc(N3CCc4ccccc4C3)c12	0.685	·
O=C(CCCCl)Nc1ccc(C(O)(C(F)(F)F)C(F)(F)F)cc1	0.785	0.2
CC(C)(C)NC(=O)CSc1nc2[nH]c(=O)cc(O)c2s1	·	0.65
N#CCCN1C(=O)c2cccc3c(Cl)ccc1c23	0.615	0.4
O=c1oc2ccc([N+](=O)[O-])cc2cc1-c1nnc(Nc2ccc(Cl)cc2Cl)s1	0.08	·
Cc1c(Cc2ccccc2)c(=O)oc2cc(OC(=O)c3ccco3)ccc12	0.945	-0.05
N#Cc1cc(-c2ccccc2C(F)(F)F)no1	·	-2.65*
Cc1c(C(=O)O)sc2ncnc(N3CCCC3)c12	·	-0.35
COC(=O)c1ccccc1NC(=O)CSc1ccccc1	0.225	0.1
COc1ccccc1-n1c(N)c(C(=O)NCc2ccccc2)sc1=S	-0.02	·
CN(C)Cc1ccccc1CN	·	-3.7*
CSc1nnc2nc(C)cc(C)n12	-0.65	0.15
O=C1/C(=C/c2cn[nH]c2-c2ccccc2)Sc2ccccc21	-0.165	·
CCC(=O)/C=C1/Sc2ccc(C)cc2N1CC	·	0.95
Cc1nn(-c2ccccc2)c2sc(C(=O)NCc3ccccc3)cc12	0.505	0.35
CCNc1sc2c(O)cc(=O)[nH]c2c1C#N	·	-0.3
CN(C)C1=NC(C(F)(F)F)(C(F)(F)F)N=C(c2cccnc2)O1	0.2	0.25
CCn1c(=O)c(-c2ccc3ccccc3n2)cc2cc(Cl)ccc21	45.3	1.25
CC(=O)N(C(C)=O)c1ccc(C)cc1	·	-0.5
COc1ccc(CCNCc2cccnc2)cc1	0.165	-1.4
CCc1cc(Br)ccc1S(=O)(=O)N1CCN(C(=O)Cc2ccc(Br)cc2)CC1	-0.83	·
c1ccc(CC(NCc2c[nH]c3ccccc23)c2ccccc2)cc1 (centres undefined)	-0.08	-3.1*
Cc1ccnc(NS(=O)(=O)c2ccc(NC(=O)c3cc(-c4ccccc4)nc4ccccc34)cc2)n1	-0.34	·
Cc1ccc2nc(SCc3nc4cccc(C)n4c3Br)[nH]c2c1	-0.645	0.15
OCCn1c(-c2ccccc2)nc2ccccc21	2.36	1
CS(=O)(=O)c1ccc(CNC(=O)N2CCCC2C(N)=O)cc1 (centres undefined)	0.27	·
Cc1ccc(S(=O)(=O)NC(=O)N2CCCN(C(=O)OC(C)(C)C)CC2)cc1	0.43	-0.1
COCc1c(C(=O)OCC(=O)c2ccc(OC(F)F)cc2)oc2ccccc12	·	2.3

# Screens deposited in PubChem by ICCB-Longwood Screening Facility, Harvard Medical School.
